ALR inh = blocks human ALR sulfhydryl oxidase activity; inhibition, % (no concentration beside the values); purified ALR, DTT oxidation, H2O2 HRP-luminol luminescence; AID 485317; 290,000 compounds, 3.8% hits;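 active means mean and each replicate at 75% or more; inconclusive means only one of the two met; inactive means neither met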;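 further: stock transfer was 7.5 nL into about 7.5 µL; 0% = neutral wells and 100% = wells with inactivated enzyme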
Vif A3G = inhibitors of Vif binding to APOBEC3G peptide, primary screen, biochemical, TR-FRET, GST-Vif 1-94, biotin-A3G peptide, dose response retest (AID 1117319); TR-FRET GST-Vif / biotin-A3G peptide binding; higher % means a stronger effect; test concentration not given here; strong numbers were not always called active; inhibition, %, or IC50 in µM where a hit was titrated; 260,000 compounds, 0.57% hits;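 active means above the screen mean plus three standard deviations and confirmed in dose response; inconclusive means results disagree or hit not tested in dose response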;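 further: Vif residues 1-94 fused to GST binding biotinylated APOBEC3G peptide 110-148; 0% = full assay without inhibitor and 100% = GST in place of GST-Vif; retest series ran down from 100 µM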
LANA-H2A inh = blocks KSHV LANA binding to histone H2A/H2B; Q9QR71; inhibition, % (concentration not given with the values); AID 2629; 320,000 compounds, 0.6% hits; cell-free LANA-H2A/H2B peptide, fluorescence polarization; in the data active means inhibition mostly above about 10%, no sharp cut-off; inactive means mostly below about 6.7%;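 further: stock transfer was 7.5 nL into about 10 µL; 0% = median of vehicle wells and 100% = median of positive control wells; one replicate is shown; the record names a cut of 25% in any replicate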
HNF4A DNA FP = change in binding of human HNF4 alpha to DNA | P41235 | HNF4a-FITC DNA binding, fluorescence polarization, 1 h | activity change, % at 10 µM | 360,000 compounds, 0.3% hits | AID 1224865; in the data active means activity change above about 30%, passing the limit was not always enough;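 further: controls were the assay level and a saturating level of protein; the project sought stronger binding though the title names inhibitors; some compounds called inactive have numbers as strong as hits; positive values seem to mean higher polarization but the record does not say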
Target sequence (P41235 whole entry, looked up): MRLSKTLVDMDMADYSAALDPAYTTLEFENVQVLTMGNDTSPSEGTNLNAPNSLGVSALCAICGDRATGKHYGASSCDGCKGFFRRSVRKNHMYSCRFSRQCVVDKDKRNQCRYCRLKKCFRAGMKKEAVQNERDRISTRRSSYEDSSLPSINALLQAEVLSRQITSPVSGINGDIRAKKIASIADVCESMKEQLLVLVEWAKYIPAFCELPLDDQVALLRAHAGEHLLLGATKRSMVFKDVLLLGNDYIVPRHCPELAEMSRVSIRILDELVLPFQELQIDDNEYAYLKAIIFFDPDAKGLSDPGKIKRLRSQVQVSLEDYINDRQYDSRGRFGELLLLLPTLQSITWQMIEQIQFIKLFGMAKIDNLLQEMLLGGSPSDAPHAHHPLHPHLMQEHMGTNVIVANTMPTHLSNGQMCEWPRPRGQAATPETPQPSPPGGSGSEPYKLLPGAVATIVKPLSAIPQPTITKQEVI
RanGTP-Impb inh = disruptors of Ran-importin-beta complex formation – biochemical, FRET, CFP-Ran, YFP-importin-beta, homogeneous, primary screen. cell-free CFP-Ran/YFP-importin-beta FRET ratio. 300,000 compounds, 1.1% hits. AID 2216. inhibition, % (no concentration beside the values);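 active means most replicates above 15%; inconclusive means exactly half above 15%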;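 further: 0% = DMSO wells and 100% = Ran loaded with GDP instead of GTP; wells of about 40 µL received 100 nL stock; the first replicate is given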
B2AR ag = activates human beta-2 adrenergic receptor causing internalization | 340,000 compounds, 0.43% hits | Am2.2-beta2AR cells, FAP receptor internalization, flow cytometry; reference of the scale not given here | P07550 | response, % (no concentration beside the values);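 active means response above a set limit, near 3 SD of response in nonfluorescent compounds, cut at about 42% in these data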;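 further: stock transfer was 100 nL into about 11 µL; a reference agonist was the positive control; negative values mostly stem from fluorescent compounds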
Target sequence (P07550 whole entry, looked up): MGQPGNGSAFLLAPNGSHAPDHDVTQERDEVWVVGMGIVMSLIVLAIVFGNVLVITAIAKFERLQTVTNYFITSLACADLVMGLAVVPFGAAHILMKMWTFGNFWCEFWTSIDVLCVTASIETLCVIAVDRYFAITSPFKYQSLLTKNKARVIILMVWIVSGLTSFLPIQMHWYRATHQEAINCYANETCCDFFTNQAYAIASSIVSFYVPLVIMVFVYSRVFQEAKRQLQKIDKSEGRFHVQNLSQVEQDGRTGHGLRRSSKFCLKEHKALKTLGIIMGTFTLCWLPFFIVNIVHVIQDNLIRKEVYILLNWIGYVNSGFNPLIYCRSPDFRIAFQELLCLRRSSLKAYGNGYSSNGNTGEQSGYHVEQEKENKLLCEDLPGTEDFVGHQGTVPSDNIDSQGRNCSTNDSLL
Calb FLC = affects C. albicans growth with fluconazole. C. albicans CaCi-2 (fluconazole-resistant clinical isolate) + fluconazole, Alamar Blue growth, 48 h. growth inhibition, % (test concentration not listed). 300,000 compounds, 0.57% hits;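 active means most replicates above 75%; inconclusive means exactly half above 75%; inactive means most below 75%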;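 further: all wells also contain fluconazole at 8 µg/ml as a sub-toxic cotreatment; 0% = median of DMSO wells and 100% = median of geldanamycin control wells; wells of about 8 µL received 7.5 nL stock; the first replicate is given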
* marks the source's active call; other numbers are inactive results; u = inconclusive; x = no result given.

Results follow in this order: ALR inh | Vif A3G | LANA-H2A inh | HNF4A DNA FP | RanGTP-Impb inh | B2AR ag | Calb FLC
- Cc1ccc(NC(=O)CSc2nnc(-c3ccccc3Br)o2)cc1C
 : -4 | 22% | 2.7 | 4.9 | -0.8 | -3 | 8
- CCSc1ccccc1C(=O)NC1CCCCC1
 : -3 | 0% | -5.7 | 2.1 | -3.4 | -2 | 0
- CC(C)C(=O)Nc1cc2c3c(c1)CCN3C(=O)CC2
 : -9 | -1% | 4.7 | -1.6 | 2.6 | 0 | 3
- O=C(c1ccc(F)cc1Cl)N1CCN(S(=O)(=O)c2cccs2)CC1
 : -3 | -10% | -218 | 3.2 | 0.1 | 1 | -2
- CC(=O)N(c1nnc(-c2cccc(C)c2)s1)C1CCCC1
 : -10 | x | 2.4 | 3.4 | -0.6 | -3 | -1
- CCNc1nc(CN2CCOCC2)nc2sc3c(c12)CCC3
 : 6 | 19% | -1.8 | -0.3 | 1.5 | -5 | -7
- CC(C)C(=O)Nc1cccc(NC(=O)c2ccc(Cl)cc2Cl)c1
 : 5 | u | -0.8 | -1.2 | -1.0 | -2 | 27
- Cc1cc(NC(=O)CN2C(=O)N(C)C3(CCCCC3)C2=O)ccc1Br
 : -7 | -3% | -1.8 | -0.3 | x | 0 | x
- O=CC1=C(N2CCOCC2)/C(=C\c2ccccc2)CC1
 : 5 | -2% | 3.1 | -5.2 | -2.7 | -3 | 18
- CCCCC(Sc1nc(N)c(NC(=O)c2ccco2)c(=O)[nH]1)C(=O)O (centres undefined)
 : -51 | 12% | -2.3 | 3.4 | 1.3 | 3 | -6
- O=C(Nc1ccc2ccccc2c1)c1ccccc1F
 : -1 | -2% | 0.7 | 3.3 | u | 15 | -34
- CCN(c1cccc(C)c1)S(=O)(=O)c1ccc(-c2ccc(=O)[nH]n2)o1
 : 2 | 8% | -8.5 | 0.5 | 7.4 | 20 | 28
- Cc1ccc(C(=O)O)cc1-n1c(C)cc(C=O)c1C
 : -19 | 4% | -0.9 | -4.6 | 2.2 | -5 | 15
- CC(=O)N1N=C(c2cccc(NS(C)(=O)=O)c2)CC1c1ccc2c(c1)OCO2 (centres undefined)
 : -8 | -5% | -2.1 | -1.3 | 1.7 | -11 | -6
- CCOC(=O)c1c(NC(=O)/C=C/c2ccco2)sc(C)c1C
 : x | 9% | 4.0 | -1.8 | -0.7 | 1 | -7
- CCCCN1CCC(CN2C(=S)NC[C@@H]2CC(C)C)CC1
 : x | 1% | x | 2.5 | x | 1 | x
- CCc1cc2c(=O)[nH]c(N3CCCC3)nc2s1
 : 6 | 0% | -1.2 | -3.1 | -2.6 | -12 | 30
- COc1cccc(-c2cc(C(F)(F)F)n3nc(C(=O)N4CCCCC4c4cccnc4)cc3n2)c1 (centres undefined)
 : x | 10% | 2.1 | 0.8 | x | -3 | -4
- COC(=O)c1sccc1NC(=O)c1ccccc1F
 : 11 | -3% | 6.4 | 2.8 | -0.2 | 3 | -3
- NC(=O)c1ccsc1NC(=O)CS(=O)(=O)c1ccccc1
 : 31 | 0% | -4.2 | 1.1 | 6.2 | 8 | 11
- CCOC(=O)C1CCN(S(=O)(=O)c2ccc(Cl)cc2OC)CC1
 : -2 | 1% | -3.7 | -1.3 | u | -3 | 28
- O=c1ccc(-c2ccccc2)no1
 : x | x | 1.4 | -3.9 | u | -6 | -5
- Cc1cc(C)n(CC(O)CN2c3ccccc3Sc3ccccc32)n1 (centres undefined)
 : 99* | >100µM* | -5.5 | 3.0 | -1.6 | 3 | 6
- COc1ccc(C)cc1S(=O)(=O)NC1CCCCCC1
 : 1 | 3% | 1.0 | 3.9 | 1.5 | 1 | -7
- O=C(Nc1cccc(NC(=O)c2ccco2)c1)c1ccc([N+](=O)[O-])cc1
 : 33 | 3% | 1.9 | -3.9 | 75* | 4 | 6
- O=C(Cn1c(=O)[nH]c2ccsc2c1=O)NC1CCCCCC1
 : 34 | 26% | 0.9 | 1.9 | -0.9 | -7 | -9
- CC(=O)N1CCOc2ccc(S(=O)(=O)N3CCC(C(=O)Nc4cc(C)cc(C)c4)CC3)cc21
 : -3 | 1% | 8.1 | 0.5 | -3.3 | 3 | 7
- O=C(Nc1ccn(CCCNCCN2CCOCC2)c(=O)n1)OCc1ccccc1
 : x | 1% | x | 2.4 | x | -8 | x
- O=C(CNS(=O)(=O)c1ccc(Br)s1)N1CCN(C(=O)c2ccco2)CC1
 : -2 | 1% | 6.5 | 2.9 | u | -3 | 1
- Cc1c(Cl)cccc1NC(=S)NCCC(C)C
 : 2 | 0% | 2.5 | 0.7 | 2.9 | -11 | 4
- Cc1ccc(CN2CC(=O)N3[C@H]4c5cc(Cl)ccc5OC[C@@H]4[C@H](c4ccccc4)[C@]3(C)C2=O)cc1
 : -4 | x | -2.2 | 8.9 | x | 5 | x
- O=C1C2C3C=CC(C3)C2C(=O)N1c1cccc(N2C(=O)C3C4C=CC(C4)C3C2=O)n1 (centres undefined)
 : -10 | 2% | -2.9 | -1.6 | 5.3 | -8 | -6
- NNC(=O)c1nc(Cl)c(Cl)c(N)c1Cl
 : 13 | 10% | -2.7 | 0.2 | 0.6 | 1 | -6
- N#CCCN(C(=O)COC(=O)CNC(=O)c1ccc(-c2ccccc2)cc1)c1ccc(F)cc1
 : -2 | -12% | -2.1 | 1.5 | -1.1 | -1 | 1
- CS(=O)(=O)N1N=C(c2ccc(Br)cc2)CC1c1ccc2c(c1)OCO2 (centres undefined)
 : -5 | -1% | -0.1 | 17 | -4.3 | -8 | -2
- CCCN1CCN(C(=S)NCc2ccc(Cl)cc2)CC1
 : 1 | 9% | -3.9 | 0.6 | -2.0 | 4 | 2
- COc1ccc(NC2=CC(c3ccc(OC)c(OC)c3)N(c3ccc(OC)cc3)C2=O)cc1 (centres undefined)
 : x | u | -0.2 | -0.2 | 1.1 | 6 | 3
- O=C(CN(C(=O)CCC(=O)Nc1nccs1)c1cccc(F)c1)NCCc1ccccc1
 : -4 | x | 1.9 | 1.2 | -0.4 | -6 | -2
- COCCN(CCOC)Cc1c(O)ccc2c1O/C(=C\c1ccc(C)o1)C2=O
 : -25 | 20% | 1.6 | 32 | -63 | 1 | 4
- O=c1[nH]c(-c2ccco2)nc2sc3c(c12)CCCC3
 : 12 | 1% | 6.6 | 1.7 | -0.8 | -32 | -1
- COc1nc(C)c2cc(C)oc2n1
 : x | 3% | -6.6 | 0.0 | 1.4 | 2 | -6
- CCOC(=O)C1=C(C)NC(C)=C(C(=O)OCC)C1C(=O)OCC(=O)N(C)C1CCS(=O)(=O)C1 (centres undefined)
 : 2 | -6% | 20* | 1.5 | u | 2 | -10
- CCOc1ccc(OCC)c(NS(=O)(=O)c2cn(C)cn2)c1
 : -1 | x | -0.4 | 1.3 | 4.6 | 3 | 4
- O=C1N=C(N2CCCCC2)S/C1=C\c1ccc(Cl)cc1
 : x | x | 0.7 | -1.2 | -2.5 | -19 | 7
- O=C(Cc1ccccc1Cl)c1ccccc1
 : x | -2% | x | 3.6 | x | 7 | x
- O=C(NCCN1CCOCC1)Nc1ccccc1
 : 0 | 5% | -6.1 | 0.4 | x | 3 | x
- Cc1c(-c2cc(Br)ccc2O)nc2cc3c(cc2c1C)OCO3
 : x | 5% | 2.5 | -3.2 | 9.0 | -67 | 7
- Cc1cc(C(=O)NN)c(C)o1
 : 6 | -7% | -0.9 | 4.3 | 12 | 8 | 13
- CCN=C1SC(C(=O)Nc2cccc(C(=O)O)c2)CC(=O)N1CC (centres undefined)
 : x | -6% | 0.0 | -2.3 | 1.8 | -3 | -7
- O=[N+]([O-])c1ccc2nc(-c3ccccn3)[nH]c2c1
 : -5 | -6% | 4.3 | -1.8 | -2.3 | -9 | 4
- CCOC(=O)C(/C=N/c1cc(C)nn1-c1ccccc1)=C(\C)O
 : x | 0% | -1.6 | -1.5 | -0.2 | -7 | -4
- CC(=O)c1cc2cc(O)ccc2o1
 : x | 5% | 2.8 | 2.5 | -2.7 | -2 | -4
- NS(=O)(=O)c1ccc(CCNC(=O)CSc2nnc3ccccn23)cc1
 : -5 | x | 2.1 | 0.1 | -2.8 | 3 | -7
- O=C(O)c1ccc2c(c1)N(Cc1ccccc1)C(=O)c1ccccc1S2
 : -3 | -1% | -1.6 | 3.0 | 4.8 | 8 | 2
- c1ccc(-n2ncc3c(NC4CCCCCC4)ncnc32)cc1
 : -6 | x | -1.4 | 2.8 | 3.5 | 3 | -3
- COCc1cc(C)nc(Nc2ccccc2OC)c1C#N
 : -6 | x | -4.4 | 0.9 | 0.1 | -7 | 1
- CC(NC(=O)Cc1c(F)cccc1Cl)C1CCCO1 (centres undefined)
 : -9 | 5% | -3.3 | 9.2 | 0.1 | 1 | -8
- Cc1sc2nc(SCC(=O)NCCO)n(-c3ccccc3)c(=O)c2c1C
 : x | x | -0.5 | 0.7 | -2.0 | -5 | -2
- Oc1ccccc1-c1nnc2n1CCCCC2
 : 5 | -2% | -2.2 | -3.5 | u | 2 | -1
- CC1CCC(NC(=O)CN2C(=O)c3cccnc3Oc3ccc(Cl)cc32)CC1 (centres undefined)
 : -2 | 1% | 0.6 | -0.4 | 0.9 | -12 | 32
- CSCCC(NC(=O)c1ccco1)C(=O)NCC(c1ccco1)N1CCCCC1 (centres undefined)
 : 3 | 9% | -5.6 | -0.1 | x | -7 | x
- CN1C(=O)/C(=C/C=C2/CCCN2C)N(C)C1=S
 : 15 | x | -0.4 | 46* | -4.0 | 10 | -15
- COc1ccc(S(=O)(=O)NC(CC(=O)NCCc2ccccc2)c2ccco2)cc1 (centres undefined)
 : 1 | -5% | 3.9 | -1.2 | 0.1 | 5 | -8

Molecules listed so far that contain an aryl methoxy group (7):
Results follow in this order: ALR inh | Vif A3G | LANA-H2A inh | HNF4A DNA FP | RanGTP-Impb inh | B2AR ag | Calb FLC
- COc1cccc(-c2cc(C(F)(F)F)n3nc(C(=O)N4CCCCC4c4cccnc4)cc3n2)c1 (centres undefined)
 : x | 10% | 2.1 | 0.8 | x | -3 | -4
- CCOC(=O)C1CCN(S(=O)(=O)c2ccc(Cl)cc2OC)CC1
 : -2 | 1% | -3.7 | -1.3 | u | -3 | 28
- COc1ccc(C)cc1S(=O)(=O)NC1CCCCCC1
 : 1 | 3% | 1.0 | 3.9 | 1.5 | 1 | -7
- COc1ccc(NC2=CC(c3ccc(OC)c(OC)c3)N(c3ccc(OC)cc3)C2=O)cc1 (centres undefined)
 : x | u | -0.2 | -0.2 | 1.1 | 6 | 3
- COc1nc(C)c2cc(C)oc2n1
 : x | 3% | -6.6 | 0.0 | 1.4 | 2 | -6
- COCc1cc(C)nc(Nc2ccccc2OC)c1C#N
 : -6 | x | -4.4 | 0.9 | 0.1 | -7 | 1
- COc1ccc(S(=O)(=O)NC(CC(=O)NCCc2ccccc2)c2ccco2)cc1 (centres undefined)
 : 1 | -5% | 3.9 | -1.2 | 0.1 | 5 | -8

3 of the entries above in order of their number in Vif A3G, descending.
Structure	Vif A3G
NNC(=O)c1nc(Cl)c(Cl)c(N)c1Cl	10%
Cc1c(-c2cc(Br)ccc2O)nc2cc3c(cc2c1C)OCO3	5%
O=C(O)c1ccc2c(c1)N(Cc1ccccc1)C(=O)c1ccccc1S2	-1%

From PubChem
